Source: PubChem BioAssay (National Center for Advancing Translational Sciences (NCATS))
CtBP-E1A blk – qHTS Assay for Inhibitors of the CtBP/E1A Interaction; CtBP / adenovirus E1A interaction (AlphaScreen); hit rate 0.49% among 340,000; AlphaScreen GST-E1A/His-CtBP binding, 1536-well; hits give low values; control for the full effect not named in the record; activity change, % (no concentration beside the values); in the data active means activity change below about -65%; inconclusive means about -30% to -65%; inactive means above about -30%; further: on the % scale 0 is the no-effect control and ±100 the full control effect; compound concentration not given in the record
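Steps: dispense buffer (Tris pH 8.0, NaCl 300 mM, TCEP 1 mM, BSA, Tween 20); add 5X protein mix (GST-E1A, His-CtBP, 125 nM each); pin 23 nL compound; 2 h at 37 °C, dark; add 5X beads (50 ug/mL); 1 h; read.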
D2 potentiator – Beta-Arrestin HTS for Positive Allosteric Modulators of the Human D2 Dopamine Receptor: Potentiators | D(2) dopamine receptor (Homo sapiens), P14416 | DiscoveRx D2 beta-arrestin cells, luminescence, 90 min; 100% = 57 uM dopamine signal | potentiation, % (test concentration not listed) | hit rate 0.23% among 360,000 | AID 624464, 2012; active = potentiation of 50% or more; inconclusive = 30% to 50%; inactive = 30% or less;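 further: compound concentration not given in the record; tested on top of an EC20 dose of dopamine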
Target sequence (P14416 whole entry, looked up): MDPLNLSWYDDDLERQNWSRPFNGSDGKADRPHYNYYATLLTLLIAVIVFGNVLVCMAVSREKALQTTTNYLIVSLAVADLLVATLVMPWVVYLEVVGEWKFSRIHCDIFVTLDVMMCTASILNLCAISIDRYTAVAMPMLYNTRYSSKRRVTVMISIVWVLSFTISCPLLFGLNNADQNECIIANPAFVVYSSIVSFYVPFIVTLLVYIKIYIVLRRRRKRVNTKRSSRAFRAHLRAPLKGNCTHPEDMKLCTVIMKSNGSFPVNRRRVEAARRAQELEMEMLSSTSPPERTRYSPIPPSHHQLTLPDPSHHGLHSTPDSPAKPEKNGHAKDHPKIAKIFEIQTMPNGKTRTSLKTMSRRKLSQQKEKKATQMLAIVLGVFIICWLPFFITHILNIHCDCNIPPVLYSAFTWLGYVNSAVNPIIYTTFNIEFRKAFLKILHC
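PathHunter D2 cells, attached overnight at 37 deg C, received compound in DMSO plus dopamine at EC20 (50 nM final) for 90 min at 37 deg C. Beta-arrestin recruitment was read as luminescence after 1 h with detection reagent at ambient temperature.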
TRPML1 inh – qHTS for Inhibitors of the Human Mucolipin Transient Receptor Potential 1 (TRPML1) | TRPML1-inducible cells, Ca2+ dye fluorescence, FDSS; hits give low values; inhibition of EC80 agonist-evoked calcium signal | hit rate 0.02% among 390,000 | AID 624415, 2012 | activity change, negative = inhibition, % (concentration not given with the values); in the data active means activity change below about -50%; inconclusive means about -30% to -50%; inactive means above about -30%;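 further: stimulus is agonist 54-4 at its EC80 concentration; on the % scale 0 is the no-effect control and ±100 the full control effect; compound concentration not given in the record; the text of the record puts the active cut at -80%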
Target sequence (Q9GZU1 whole entry, looked up): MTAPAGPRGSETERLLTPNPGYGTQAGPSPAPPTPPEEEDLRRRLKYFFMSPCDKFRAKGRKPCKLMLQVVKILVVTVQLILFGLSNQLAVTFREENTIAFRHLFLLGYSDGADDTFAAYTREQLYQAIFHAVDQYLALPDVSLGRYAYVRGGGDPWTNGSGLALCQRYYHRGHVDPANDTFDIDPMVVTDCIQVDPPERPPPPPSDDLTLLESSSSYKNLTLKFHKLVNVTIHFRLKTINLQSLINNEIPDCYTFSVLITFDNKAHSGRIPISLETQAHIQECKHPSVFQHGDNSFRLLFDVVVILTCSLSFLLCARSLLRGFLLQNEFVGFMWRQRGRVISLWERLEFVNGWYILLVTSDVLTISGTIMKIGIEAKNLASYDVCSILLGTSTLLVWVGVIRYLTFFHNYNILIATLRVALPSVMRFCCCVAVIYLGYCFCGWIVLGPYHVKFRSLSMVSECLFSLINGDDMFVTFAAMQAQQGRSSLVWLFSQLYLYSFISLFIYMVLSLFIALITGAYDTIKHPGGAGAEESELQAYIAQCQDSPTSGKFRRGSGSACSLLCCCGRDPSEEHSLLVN
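Calcium fluorescence in TRPML1-DL cells induced overnight with Tet: a 110 s read after compound pin addition, then a 110 s antagonist read after challenge with 54-4 at 4 uM final (EC80).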
TRPML1 ag – qHTS for Agonists of the Human Mucolipin Transient Receptor Potential 1 (TRPML1); TRPML1-expressing cells, Ca2+ dye fluorescence, FDSS; host cell line not named in the record; reference of the full effect not given here; activation, % (concentration not given with the values); hit rate 0.12% among 410,000; AID 624414, 2012; in the data active = activation above about 50%; inconclusive = about 30% to 50%; inactive = below about 30%; further: 0% is about no effect; the text of the record puts the active cut at 80%
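Kinetic FDSS Ca2+ read in Tet-induced TRPML1-DL cells (ABD Ca8 dye plus quencher, 45-90 min RT loading): baseline, then compound, then 110 s agonist window; EC80 agonist 54-4 at 4uM final added afterwards for a 110 s antagonist window.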
TRPV1 PAM – HTS Assay for Compounds that Act as Potentiators of the Vanilloid Receptor 1 | potentiation, % at 8.33 µM | TRPV1-expressing cells, Fluo-8 calcium influx, capsaicin EC20 potentiation; host cell line not named in the record; control for the full effect not named in the record | Transient receptor potential cation channel subfamily V member 1 (Homo sapiens), Q8NER1 | hit rate 0.02% among 320,000; active means potentiation above 80%; inconclusive means 30% to 80%; inactive means below 30%; further: 0% is about no effect
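Cells expressing TRPV1 were dye-loaded with Fluo-8 and read kinetically: 10 s baseline, 3 min after compound (agonist portion), then 2 min after EC20 capsaicin (allosteric enhancer portion). Calcium-bound dye fluorescence at 480/520 nm.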
Six1-Eya2 inh – qHTS Assay for Inhibitors of the Six1/Eya2 Interaction | Homeobox protein SIX1 (Homo sapiens) + Protein phosphatase EYA2 (Homo sapiens), … | AlphaScreen GST-Six1/His-Eya2 binding, biochemical; hits give low values; control for the full effect not named in the record | activity change, % (test concentration not listed) | hit rate 0.56% among 360,000 | AID 651725, 2012; in the data active = activity change below about -65%; inconclusive = about -30% to -65%; inactive = above about -30%; further: on the % scale 0 is the no-effect control and ±100 the full control effect; compound concentration not given in the record
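Six1/Eya2 binding was read as AlphaScreen signal after compounds were pinned into GST-Six1 plus His-tagged Eya2 (5X stock 250/500 nM) in pH 8.0 Tris/NaCl/TCEP buffer, beads added, then incubated 1 h, 37 C, dark.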
* hit, by the source's call; ? = inconclusive; . = no result given.

SMILES	CtBP-E1A blk	D2 potentiator	TRPML1 inh	TRPML1 ag	TRPV1 PAM	Six1-Eya2 inh
COc1ccc([N+](=O)[O-])cc1NC(=O)C(C)OC(=O)C1CCC1 (stereo unspecified)	-24	-12	5	-0.1	14	3
O=C(NCCc1ccccc1)c1cccc(S(=O)(=O)NCc2ccccc2)c1	5	-2	1	0.6	8	4
S=c1[nH]nc(CCc2ccccc2)n1Cc1ccccc1	-1	-7	33	0.8	13	0
CCN(CC)CCNC(=O)c1ccc(NC(=O)c2cc(S(=O)(=O)N3CCCCC3)ccc2N2CCOCC2)cc1	7	-20	-13	0.6	.	2
CCOC(=O)c1c(NC(=O)COC(=O)c2nccnc2N)sc2c1CCC2	0	-1	-3	1.0	-7	-2
CCOc1ccccc1C1C(C#N)=C(N)Oc2cc(N)ccc21 (stereo unspecified)	-6	10	3	4.3	0	-9
Cc1c(C(=O)Nc2ccncc2)sc2nc(-c3ccccc3)cn12	-2	-3	1	0.1	-23	-11
Cc1cc(C)c(OCC(=O)Nc2ccc(NC(=O)c3ccco3)cc2)c([N+](=O)[O-])c1	-12	-20	12	0.0	4	8
CC1CC(C)(C)NC2(CCCC2)N1 (stereo unspecified)	0	-3	28	0.5	.	-6
Cc1cc(C)cc(N2C(=O)CC(c3ccccc3)CC2=O)c1	1	-9	2	0.2	-8	9
Cc1ccc(S(=O)(=O)N2CC(=O)Nc3ccccc32)cc1	1	-9	13	0.9	-4	8
NCCCC[C@H]1CNC(=O)C(=O)N1CCC12CC3CC(CC(C3)C1)C2	.	-8	35	0.3	18	3
Cc1cc(C)cc(NC(=S)NCC2CCN(C(C)c3ccccc3)C2)c1 (stereo unspecified)	-7	-26	0	-0.9	-6	-13
CC(C)CC1OC(C)CC2=C1C(=O)OC(C)(C)O2 (stereo unspecified)	5	.	.	-0.8	.	5
Nc1ccc2nc(SCC(=O)N3CCN(c4ccccc4)CC3)sc2c1	0	-2	-4	1.8	-3	-12
COC(=O)Cc1ccc(OCC(=O)Nc2ccc(OC(F)(F)F)cc2)cc1	2	-2	0	1.6	-4	11
CCOc1[nH]n(-c2ccc(Cl)cc2)c(=O)c1C=Nc1ccc(O)cc1	0	11	-10	0.6	-12	0
CCOC(=O)c1ccc(-c2ccc(/C=N/NC(=O)CN(c3ccccc3Br)S(C)(=O)=O)o2)cc1	6	13	6	-0.6	-2	4
O=c1ccc(-c2n[nH]c(=S)n2-c2ccc(F)c(Cl)c2)n[nH]1	0	-4	3	0.9	0	7
O=C(O)c1ccc(Cl)c(S(=O)(=O)Nc2ccc(OCc3ccccc3)cc2)c1	-1	-7	-7	-0.7	2	-4

As a short view, 4 of the compounds above.
SMILES	CtBP-E1A blk	D2 potentiator	TRPML1 inh	TRPML1 ag	TRPV1 PAM	Six1-Eya2 inh
COc1ccc([N+](=O)[O-])cc1NC(=O)C(C)OC(=O)C1CCC1 (stereo unspecified)	-24	-12	5	-0.1	14	3
O=C(NCCc1ccccc1)c1cccc(S(=O)(=O)NCc2ccccc2)c1	5	-2	1	0.6	8	4
S=c1[nH]nc(CCc2ccccc2)n1Cc1ccccc1	-1	-7	33	0.8	13	0
CCN(CC)CCNC(=O)c1ccc(NC(=O)c2cc(S(=O)(=O)N3CCCCC3)ccc2N2CCOCC2)cc1	7	-20	-13	0.6	.	2

Taken from above:
`CC(C)CC1OC(C)CC2=C1C(=O)OC(C)(C)O2` (stereo unspecified) @ TRPML1 ag: -0.8
`COC(=O)Cc1ccc(OCC(=O)Nc2ccc(OC(F)(F)F)cc2)cc1` @ D2 potentiator: -2
`O=C(O)c1ccc(Cl)c(S(=O)(=O)Nc2ccc(OCc3ccccc3)cc2)c1` @ D2 potentiator: -7
`O=c1ccc(-c2n[nH]c(=S)n2-c2ccc(F)c(Cl)c2)n[nH]1` @ TRPML1 inh: 3
`Cc1cc(C)cc(NC(=S)NCC2CCN(C(C)c3ccccc3)C2)c1` (stereo unspecified) @ D2 potentiator: -26

Further results:
SMILES	CtBP-E1A blk	D2 potentiator	TRPML1 inh	TRPML1 ag	TRPV1 PAM	Six1-Eya2 inh
O=C(NC1CCCCC1)C1c2ccccc2OCC(=O)N1Cc1cccnc1 (stereo unspecified)	1	.	.	-0.1	.	-3
COCCNC(=O)/C(C#N)=C/c1cccc(/C=C(\C#N)C(=O)NCCOC)c1	4	-1	-14	0.3	-4	5
O=C(COc1ccccc1F)Nc1ccc(S(=O)(=O)N2CCCC2)cc1	5	-11	-6	-0.2	-17	-13
O=S(=O)(c1ccccc1)N1CCN=C1SCc1ccccc1	4	-8	52	1.8	-13	4
Cc1cnc(NS(=O)(=O)c2ccccc2)c(C)n1	-3	-9	.	.	-2	-7
O=C(O)C(Oc1ccc2c(-c3ccccc3)cc(=O)oc2c1)c1ccccc1 (stereo unspecified)	-4	2	-3	1.0	9	1
O=C(CCc1ccccc1)NCc1cccnc1	6	-18	-13	0.6	-1	3
COC(=O)c1c(C)[nH]c(C=O)c1-c1ccccc1	-12	-5	3	2.2	.	2
O=C(O)CC1C(=O)NCCN1C/C=C/c1ccccc1 (stereo unspecified)	3	-7	-18	-0.1	-3	1
CCC(=O)Nc1cccc(C(=O)/C=C/c2ccccc2)c1	3	-17	29	2.6	2	9
O=C1NC2(CCCCCC2)Oc2ccccc21	1	-1	-11	5.1	-2	0
O=S(=O)(Nc1ccccc1O)c1ccc(-c2ccccc2)cc1	.	-7	5	4.4	-19	1
CC(C)(CN1CCN(c2ccccc2)CC1)NS(=O)(=O)c1ccccc1	-20	-1	54	1.9	2	-6
CCC1=C(OC(=O)N(CC)CC)N2C(=O)OC(=NCC3CC3)[C@]2(Cc2ccccc2)[C@H]2C1=CC[C@H]1C(=O)N(C)C(=O)[C@H]12	1	-7	13	-0.7	-24	4
O=C(Nc1nnc(CCc2ccccc2)s1)c1cccs1	2	-4	-7	0.8	-3	5
COc1cccc(C(=O)N2CCC(n3nccc3NC(=O)CCOc3ccccc3)CC2)c1	.	-6	12	0.0	-4	6
COc1cccc(C(=O)Nc2ccc(C(=O)O)cc2)c1	0	2	29	0.1	1	8
CCOc1ccccc1NC(=O)CCNC(=O)C1CCN(S(=O)(=O)c2ccccc2)CC1	2	0	13	0.3	.	0
Cc1ccc(OCC(=O)O/N=C(\N)Cc2ccc(Cl)cc2)cc1	52	0	-21	-0.9	-5	49
CN1C(=O)C(C(=O)NC(C)(C)C)C2c3ccccc3OC13CCCCC23 (stereo unspecified)	-2	-7	0	-0.6	-18	-1

Given in markdown: entries from further up
| structure | CtBP-E1A blk | D2 potentiator | TRPML1 inh | TRPML1 ag | TRPV1 PAM | Six1-Eya2 inh |
| --- | --- | --- | --- | --- | --- | --- |
| O=S(=O)(Nc1ccccc1O)c1ccc(-c2ccccc2)cc1 | . | -7 | 5 | 4.4 | -19 | 1 |
| O=c1ccc(-c2n[nH]c(=S)n2-c2ccc(F)c(Cl)c2)n[nH]1 | 0 | -4 | 3 | 0.9 | 0 | 7 |
| COc1cccc(C(=O)N2CCC(n3nccc3NC(=O)CCOc3ccccc3)CC2)c1 | . | -6 | 12 | 0.0 | -4 | 6 |

(further entries)
SMILES	CtBP-E1A blk	D2 potentiator	TRPML1 inh	TRPML1 ag	TRPV1 PAM	Six1-Eya2 inh
O=C(COC(=O)c1ccc(Br)o1)NC12CC3CC(CC(C3)C1)C2	-6	2	37	3.1	.	7
C#CCOCCOCCOCCNc1nc(N2CCN(C(=O)Cn3cc(CCCN=C(N)N)nn3)CC2)nc(N2CCN(C(=O)[C@H](CCCCN)n3cc(CCCC)nn3)CC2)n1	2	-6	-5	-0.5	?	3
CC(=O)c1sc(NC(=O)c2ccc(C)c(C)c2)nc1C	.	0	12	3.5	-26	3
O=C(CC1SC(=O)NC1=O)Nc1ccc(Cl)cc1 (stereo unspecified)	-5	-11	-2	-0.4	-14	4
COC(=O)Oc1ccc(/C=N/NC(=O)CN(c2ccccc2Br)S(C)(=O)=O)cc1OC	.	-15	16	-0.6	-4	-21
CCCc1noc(-c2ccc(-c3ccccc3)cc2)n1	26	10	-6	2.3	15	38
O=C(O)Cc1ccc(NS(=O)(=O)c2c(Cl)cccc2Cl)cc1	7	1	-2	-0.5	4	-1
Cc1cccc(CN2CCCC(C(=O)c3ccc4c5c(cccc35)CC4)C2)n1 (stereo unspecified)	-12	-29	6	0.3	8	-14
COc1ccc2cc3[n+](cc2c1O)CCc1cc2c(cc1-3)OCO2	-24	.	.	0.0	.	-28
CC(C)c1ccc(COC(=O)CN2C(=O)NC3(CCCCC3C)C2=O)cc1 (stereo unspecified)	6	20	1	3.0	-22	4

2 entries drawn at random from the list so far, as already listed:
SMILES	CtBP-E1A blk	D2 potentiator	TRPML1 inh	TRPML1 ag	TRPV1 PAM	Six1-Eya2 inh
COc1ccc2cc3[n+](cc2c1O)CCc1cc2c(cc1-3)OCO2	-24	.	.	0.0	.	-28
Cc1cccc(CN2CCCC(C(=O)c3ccc4c5c(cccc35)CC4)C2)n1 (stereo unspecified)	-12	-29	6	0.3	8	-14

More structures follow.
SMILES	CtBP-E1A blk	D2 potentiator	TRPML1 inh	TRPML1 ag	TRPV1 PAM	Six1-Eya2 inh
Cc1cccn2c(=O)c3cc(C(=O)NCc4ccc(F)cc4)c(=N)n(CCCN4CCOCC4)c3nc12	-3	-11	.	.	.	-1
O=C(c1ccc(S(=O)(=O)Nc2ccccc2)cc1)N1CCCCCCC1	-2	-12	6	5.3	-1	0
COc1ccc(/C=C/C(=O)N2CCN(c3ccccc3)CC2)cc1S(=O)(=O)N1CCOCC1	-9	8	6	-0.1	-4	-2
Cc1ccccc1OCC(=O)Nc1nnc(COc2ccccc2)s1	11	-1	19	0.5	.	3
COc1ccc2oc(C(=O)N3CCN(C(=O)c4ccco4)CC3)c(C)c2c1	-3	1	-17	-0.6	1	-11
O=C(Nc1cccc(Cl)c1Cl)C1CCN(C(=O)c2cccs2)CC1	2	-5	-8	0.4	3	-3
COc1ccccc1NNC(=O)c1cccnc1Oc1ccccc1	2	-9	8	0.1	.	0
CC(C)N1CCc2c(sc(NC(=O)c3nc4ccccc4s3)c2C(N)=O)C1	-3	-19	23	-0.6	7	-14
CN(CCCN1CCOCC1)C(=O)c1cc(COc2c(F)cccc2F)on1	18	-23	-3	0.5	-10	-2
CC(C)(C)OC(=O)NCCCCCNC(=O)c1[nH]cnc1C(=O)N[C@@H](CCCCNC(=O)OC(C)(C)C)C(=O)OC(C)(C)C	1	1	-4	0.4	13	4
CCc1cc(-c2n[nH]c(=S)n2CC(C)C)cs1	-4	-5	-5	-0.5	7	2
COc1ccc(C(C)(C)C)cc1NC(=O)c1ccccc1-n1cnnn1	-7	-1	15	1.7	.	-5

Compounds as they come (roughly 0.95% active in at least one column).
